NPYLR7 agonist: agonists of mosquito NPYLR7 receptor, primary screen, cell-based, Aedes aegypti, calcium fluorescence, mosquito biting behavior; HEK293T NPYLR7/Galpha15, GCaMP6s calcium fluorescence; activation, % at 10 µM; Aedes aegypti neuropeptide Y-like receptor 7 (NPYLR7); 270,000 compounds, 0.15% hits; AID 1259423, 2018; in the data active = activation above about 40%;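 note: 0% = vehicle and 100% = reference agonist at the receptor; some compounds past the cut are filed as inactive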
NPYLR7 agonist max-min: recorded beside NPYLR7 agonist, whose call it bears; activation, %; measured here: Max-Min RFU normalised activation; some inactives read as strong as hits;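 span of the calcium signal over five minutes; 0% = vehicle and 100% = native peptide agonist; compound fluorescence can raise it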
Numbers without * were called inactive; & = joins results of further samples. These rows are one share of the data. The share of hits here may be higher or lower than overall.

SMILES	NPYLR7 agonist	NPYLR7 agonist max-min
COC(=O)C1=C(C)NC(C)=C(C(=O)OC)C1/C=C(\Cl)c1ccc(C)cc1	-3	1
Cc1cc(C)c(CN2CCN(c3ncc(F)cn3)CC2)c(-n2cccn2)c1	6	3
Cc1cc2c(cc1N)n(C)c(=O)n2C	1	0
CSCCNCc1cnc(SC)nc1N1CCOCC1	3	-2
COC(=O)CCc1c(C)nn(-c2ccc(C(=O)NC3CCCCC3)cc2)c1C	20	7
CCc1nc2sc3c(c2c(=O)n1N=CN(C)C)CCCC3	6	3
CCN(CC)c1c(C)nc2ccc(C(=O)NCc3cccs3)cn12	-9	-10
CC(Cn1cncn1)C(=O)Nc1ccccc1C(=O)N1CCCCCC1 (stereo not drawn)	29	16
COc1cccc2sc(N(CCCN(C)C)C(=O)c3ccco3)nc12	2	0
CC(=O)NCCC1CCCCN1C(=O)C(=O)Nc1ccccc1Cl (stereo not drawn)	8	5

Next part, overlapping the part above by five compounds.
SMILES	NPYLR7 agonist	NPYLR7 agonist max-min
CCc1nc2sc3c(c2c(=O)n1N=CN(C)C)CCCC3	6	3
CCN(CC)c1c(C)nc2ccc(C(=O)NCc3cccs3)cn12	-9	-10
CC(Cn1cncn1)C(=O)Nc1ccccc1C(=O)N1CCCCCC1 (stereo not drawn)	29	16
COc1cccc2sc(N(CCCN(C)C)C(=O)c3ccco3)nc12	2	0
CC(=O)NCCC1CCCCN1C(=O)C(=O)Nc1ccccc1Cl (stereo not drawn)	8	5
CC(C)N(Cc1c(-c2ccccc2)noc1N1CCOCC1)C(=O)Cc1ccccc1	2	6
COCC(=O)N1CCC(C(NC(=O)c2ccc(C)cc2)C(=O)NC2CC2)CC1 (stereo not drawn)	-2	1
COc1ccc(-c2cnnc(NCCSc3nnc(C)s3)n2)cc1	2	-1
Cc1cc(C)n2c(C(=O)N3[C@@H]4CC[C@H]3CN(C)C(=O)C4)nnc2n1	7	5
COc1ccc(C(N)=O)c(OCc2ccc(C#N)cc2)c1	10	6
COc1ccc(C2(CI)C(=O)c3ccccc3C2=O)cc1	8	0
CC1=NN(Cc2ccc(Cl)c(Cl)c2)c2nc3c(c(=O)n(C)c(=O)n3C)n2C1C (stereo not drawn)	2	10
CCC(=O)N1CCN(c2ccc(Cl)cc2Cl)C(=O)C1C (stereo not drawn)	4	8
CCCCCc1nc2cccc(C)n2c1NCc1ccccc1	2	4
O=C(C1=NOC2C(=O)N(c3cc(Cl)ccc3Cl)C(=O)C12)c1cccs1 (stereo not drawn)	-9	-11
CCOC(=O)C1=C(C)NC(C)=C(C(=O)OCC)C1c1ccc(F)cc1	-22	-26
Cc1ccc2cc(C3(O)CCN(C(=O)CCn4cccn4)CC3)ccc2n1	0	-3
CCc1[nH]c2c(CNC(=O)CCCc3cn[nH]c3)cc(F)cc2c1C	4	2
Cn1cc(C(=O)NCc2ccc(Br)cc2Cl)cn1	6&6	7&1
CC(c1ccccc1Cl)n1ccnc1-c1ccc(S(C)(=O)=O)cc1 (stereo not drawn)	4	1
O=C(NCc1ccccn1)c1nn(-c2ccc(F)cc2)c(=O)n(Cc2ccccc2F)c1=O	13	10
O=C(c1cc(C2CCCCN2C(=O)OCCF)on1)N1CCOCC1 (stereo not drawn)	4	1
CC(=NNc1ccc(C(F)(F)F)cn1)c1ccc2c(c1)Nc1ccccc1S2	8	6
CCCCN(CC(N)=O)C(=O)/C=C/c1ccc(C2CC2C)o1 (stereo not drawn)	-4	-6
CCOC(=O)c1c(CN2CCN(C)CC2)n(-c2ccccc2)c2cc(Br)c(O)cc12	-7	-9
CC(=O)c1cccc(NC(=O)CCn2nc(C)nc2C)c1	0	3
Cc1nc2ccc(C(=O)NCCCn3ccnc3)cn2c1N(C)CC1CCCCC1	-4	-10
COc1ccc(CCNC(=O)NCc2nnnn2-c2ccc(C)cc2)cc1	5	6
CCCC(O)CN(CCC(C)C)Cc1cccs1 (stereo not drawn)	22	22
COCc1cc(C)nc(OCC(=O)N/N=C\c2cc(OC)c(OC)cc2[N+](=O)[O-])c1C#N	-11	-9
CCCN(C)c1nc(SCc2ccc(C(=O)NCc3ccccc3)cc2)nc(C)c1C	-16	-2
O=C(c1ccncc1)N1CCN(C(c2ccccc2)c2ccccc2)CC1	2	3
COc1ccc(F)c(CN2CCCC3(CCN(C(=O)c4cn5ccccc5n4)C3)C2)c1 (stereo not drawn)	8	10
CC(C)(O)C#Cc1ccc(CN2CCN(Cc3ccsc3)C(CCO)C2)cc1 (stereo not drawn)	1	-2
O=C(c1cnn(-c2ncc3c(n2)-c2ccccc2CC3)c1C1CC1)N1CCN(Cc2ccccc2)CC1	13	3
COCCN(C)C(=O)c1cc(Br)cc(Cl)c1O	3	3
COC(=O)c1ccccc1NC(=O)Cn1ncn2nc(-c3ccc(C)cc3)cc2c1=O	-6	-13
CCNc1ccnc(-c2cnc3ccccc3c2)n1	5	2
O=C(c1cccc(OC2(C(=O)O)CCSCC2)c1)N1CCOCC1	-2	-2
CCCCn1c(S(=O)(=O)C(C)C(N)=O)nc(C)c1C (stereo not drawn)	5	1
COc1ccc(-c2cnc(-c3ccc(CNC(=O)C(C)(C)OC(C)=O)cc3)[nH]2)cc1	25	34
C=CCN(CC(F)(F)F)C(=O)c1csc(-c2ncccn2)n1	1	0
COc1cccc(CC2(CO)CCN(C(=O)c3scc4c3CCCC4)CC2)c1	0	-6
COc1ccc(/C=N\NC(=O)c2[nH]c3ccc(C)cc3c2-c2ccccc2)c(C(=O)O)c1OC	-15	-18
COc1cc2c(cc1OC)C(c1c(F)cccc1Cl)N(C(=O)C(OC(C)=O)c1ccccc1)CC2 (stereo not drawn)	7	-3
C=C(C)CSC1=C(C#N)C2(CCCCC2)C(C#N)C(=O)N1 (stereo not drawn)	4&-2	-1&-4
CCOCCCNC(=O)c1ccc(-n2nc(C(=O)OCC)cc2-c2ccc(Cl)cc2Cl)cc1	4	0
CC1=CC(=NOS(=O)(=O)c2ccccc2)C(C)=CC1=O	-3	-3
CN(C)c1cccc(-c2cc(Nc3ccccc3)ncn2)c1	-9	-10
Cc1cc[n+](C2=C(c3c(C)[nH]n(-c4ccc(F)cc4)c3=O)C(=O)N(C3CCCCC3)C2=O)cc1	-8	-5
Cc1nc(C(C)(C)C)sc1C(=O)Nc1ccc(-c2csnn2)cc1	3	1
COc1cc(OC)c(OC)cc1CN	0	10
CCOc1ccc(C(=O)Nc2cc(C)nn2-c2nc(C)c(C)c(=O)[nH]2)cc1OCC	13	4
CC(C)N1CCC(CNc2cnn(C)c(=O)c2Br)C1 (stereo not drawn)	-5	-6
O=[N+]([O-])c1cc2c(c(CSc3nnc4sc5ccccc5n34)c1)OCOC2	-1	-3

Following part:
SMILES	NPYLR7 agonist	NPYLR7 agonist max-min
CC1(C(=O)NC2Cc3ccccc3C2)CCN1C(=O)Cc1ccc(-c2ccccc2)cc1 (stereo not drawn)	5	3
Cc1cc(C)c2nc(NC(=O)Cn3cncn3)sc2c1	1	-2
Clc1ccc(CN2CCN(Cc3nc4ccccc4s3)CC2)s1	6	3
Cc1cnc(Cn2cnc(-c3ccccc3)c2COCc2ccccc2)cn1	12	10
CCn1nc(C)cc1C(=O)NCc1cccnc1N1CCOCC1	5	4
Cc1cc(NC(=O)N(C)C2CCCc3ccccc32)no1 (stereo not drawn)	-6	-8
O=C(NC1CC1)C1CCN(C2CCN(Cc3ccc4c(c3)OCCO4)CC2)CC1	-4	-6
O=C(c1ccno1)N1CCC(Cc2ccc(F)cc2)CC1	-5	-12
Cc1c(C(C)NC(=O)C[n+]2cc(=O)o[nH]2)cnn1-c1cccc2ccccc12 (stereo not drawn)	7	0
Cc1nc(SCC(=O)N2CC3(C)CC2CC(C)(C)C3)c2c3c(sc2n1)CCCC3 (stereo not drawn)	3	10
Cc1nc(N2CCN(C(=O)C(C)C)CC2)c2c3c(sc2n1)CCCC3	14	6
Cc1cc(=O)n2c(-c3ccc(NS(C)(=O)=O)cc3)csc2n1	-6	-6
Cc1ccc2sc(N3CCN(C(=O)C4=COCCO4)CC3)nc2c1C	-6	-11
CSCC(=O)N(CC1CCN(Cc2ccccc2C)CC1)CC1CCCO1 (stereo not drawn)	2	-1
CS(=O)(=O)c1cccc2c1CCCN2C(=O)/C=C/c1ccsc1	3	2
CCOC(=O)C1=C(C)N=c2s/c(=C\c3ccc(-c4ccc(C)cc4[N+](=O)[O-])o3)c(=O)n2C1c1ccccc1 (stereo not drawn)	4	13
Cc1nc(C(=O)NC(c2ccc(Cl)cc2)c2cccnc2)cs1 (stereo not drawn)	2	0
O=C(c1ccc(=O)[nH]c1)N1CCN(Cc2nc3ccccc3n2Cc2ccccc2)CC1	0	-3
CC(NC(=O)c1nn(-c2ccc(F)cc2)c(=O)n(Cc2ccccc2F)c1=O)c1ccccc1 (stereo not drawn)	-6	-2
CO[C@H]1CN(C)[C@@H]2Cc3c([nH]c4ccccc34)[C@@H]1C2	25	27
Cc1cccc(C(=O)N2CCN(c3ccccc3-c3ccccc3)C(=O)C2C)c1 (stereo not drawn)	-2	10
O=C(NNS(=O)(=O)c1cccs1)C12CC3CC(CC(C3)C1)C2	2	6
Nc1nc(=S)c2ncn([C@@H]3O[C@H](CO)[C@@H](O)[C@H]3O)c2[nH]1	-4	-11
COc1ccc(CN2CCCC(Nc3ccccc3)C2)cc1OC (stereo not drawn)	-6	-8
COc1ccc(S(=O)(=O)N(CC(=O)N2CCc3sccc3C2c2ccc(Cl)cc2Cl)CC2CCCO2)cc1 (stereo not drawn)	15	27
CC1CCN(S(=O)(=O)N2CCCC(C(=O)NC3CCCC3)C2)CC1 (stereo not drawn)	-1	0
O=C(O)CCc1ccc(-c2ccc(Br)cc2)[nH]1	14	10
COCCNC(=O)c1ccc(CSc2nc(-c3ccccc3)cc(N(C)CCc3ccc(OC)c(OC)c3)n2)o1	12	-3
CC1CN(C(C)(C)CNC(=O)c2ccc[nH]c2=O)CC(C)O1 (stereo not drawn)	-6	-6
CCc1oc(C(=O)N2CCN(CC(=O)O)C(=O)C2C)cc1CN1CCCC1 (stereo not drawn)	4	1
CCC(COC)n1cnc(-c2ccccc2)c1-c1cccc2nonc12 (stereo not drawn)	19	5
COc1cc2c(CCNC(C)=O)c[nH]c2cc1O	-1	-24
c1ccc(-c2cnn3cc(CN4CCNC(c5ccccc5)C4)cnc23)cc1 (stereo not drawn)	12	5
O=C(CCc1cccs1)N1CCOC(CCCc2ccccc2)C1 (stereo not drawn)	21	11
COc1cccc(CN(Cc2ccc(F)cc2)CC(O)Cc2ccccc2)c1 (stereo not drawn)	-2	5
CC(NC(=O)c1ccc(OCc2ccccc2C#N)cc1)c1cccs1 (stereo not drawn)	11	4
Cc1ccc(CN(Cc2ccccc2)C(=O)CN(CC(C)C)S(=O)(=O)c2cccc(C(F)(F)F)c2)o1	1	5
COc1cccc(C(C2Sc3nc(C)nn3C2=O)N2CCC(C)CC2)c1 (stereo not drawn)	6	6
CC1c2ccsc2CCN1C(=O)c1cccc(CS(C)(=O)=O)c1 (stereo not drawn)	11	5
COC(=O)C(=O)NC1CCc2[nH]c3cc(C)ccc3c2C1 (stereo not drawn)	23	12

Given as a markdown table: two of the compounds above.
| mol | NPYLR7 agonist | NPYLR7 agonist max-min |
| --- | --- | --- |
| c1ccc(-c2cnn3cc(CN4CCNC(c5ccccc5)C4)cnc23)cc1 (stereo not drawn) | 12 | 5 |
| CCC(COC)n1cnc(-c2ccccc2)c1-c1cccc2nonc12 (stereo not drawn) | 19 | 5 |

Other records
SMILES	NPYLR7 agonist	NPYLR7 agonist max-min
COCCNC(=O)c1cccc(-c2nc3c(NCCc4ccccn4)nccc3[nH]2)c1	-4	-12
Cc1cc(C)n(-c2ccc(NCC(C)(C)S(C)(=O)=O)nn2)n1	-19	-22
O=C(NC1(c2cccc(Br)c2)CCC1)c1n[nH]c(=O)c2ccccc12	4	2
N#CCOc1ccc(NC(=O)CCOc2ccc(F)cc2Cl)cc1	-1	3
CCOC(=O)c1cc(-c2ccc(CC)cc2)n(-c2ccc(C(=O)NCc3cc(F)cc(F)c3)cc2)n1	4	5
COc1ccc(N2C(=O)C(c3c(C)[nH]n(C(C)(C)C)c3=O)=C(N3CCC(C)CC3)C2=O)cc1	23	17
CCOc1ccc(-c2nc(CN(C)C(C)c3cccc(OC)c3)c(C)o2)cc1 (stereo not drawn)	4	4
CCc1nc2ccc(C(=O)NCCc3ccccn3)cn2c1N(C)C(=O)C1CCCCC1	-9	-14
Cc1ccc(C(=O)Nc2c(C)nc3scc(C)n3c2=O)cc1C	9	4
FC(F)(F)c1c[nH]c(=S)c(Cl)c1	8	7

Entries of single compounds, looked up by structure. Order of screens: NPYLR7 agonist	NPYLR7 agonist max-min
Profile of N#CCOc1ccc(NC(=O)CCOc2ccc(F)cc2Cl)cc1 : -1	3
Profile of COCCNC(=O)c1cccc(-c2nc3c(NCCc4ccccn4)nccc3[nH]2)c1 : -4	-12
Profile of FC(F)(F)c1c[nH]c(=S)c(Cl)c1 : 8	7
Profile of CCc1nc2ccc(C(=O)NCCc3ccccn3)cn2c1N(C)C(=O)C1CCCCC1 : -9	-14
Profile of COc1ccc(N2C(=O)C(c3c(C)[nH]n(C(C)(C)C)c3=O)=C(N3CCC(C)CC3)C2=O)cc1 : 23	17

Next part:
SMILES	NPYLR7 agonist	NPYLR7 agonist max-min
CC(C)CN1CCN(C(=O)NCc2ccc(F)cc2)C(C)C1=O (stereo not drawn)	15	13
CCOC(=O)CCC(=O)N1CCN(C(=O)CN2CCc3sccc3C2c2ccccc2)CC1 (stereo not drawn)	10	-2
CC(C)(C)N1CC(c2nc3ccccc3n2CCOc2ccccc2Cl)CC1=O (stereo not drawn)	3	-2
COCCN(CC(=O)N(CCc1c[nH]c2ccccc12)Cc1ccccc1OC)C(=O)CCC1CCCC1	0	2
Cc1nnc(-c2cc3ccccc3n2CC(=O)Nc2ccc(Cl)cc2)o1	-9	-6

Bioassay records deposited in PubChem by Fisher Drug Discovery Resource Center.
